Polio RdRp inh: inhibitors of poliovirus RNA polymerase binding and polymerization. P03300. poliovirus polymerase elongation, fluorescence polarization; active compounds read low. % elongation, % (compound at 16.7 µg/mL). 150,000 tested, 0.66% active. AID 588519; in the data active means % elongation below about 90%; further: some results filed as inactive read as strong as hits
Target sequence (P03300 1749-2209 limits assumed): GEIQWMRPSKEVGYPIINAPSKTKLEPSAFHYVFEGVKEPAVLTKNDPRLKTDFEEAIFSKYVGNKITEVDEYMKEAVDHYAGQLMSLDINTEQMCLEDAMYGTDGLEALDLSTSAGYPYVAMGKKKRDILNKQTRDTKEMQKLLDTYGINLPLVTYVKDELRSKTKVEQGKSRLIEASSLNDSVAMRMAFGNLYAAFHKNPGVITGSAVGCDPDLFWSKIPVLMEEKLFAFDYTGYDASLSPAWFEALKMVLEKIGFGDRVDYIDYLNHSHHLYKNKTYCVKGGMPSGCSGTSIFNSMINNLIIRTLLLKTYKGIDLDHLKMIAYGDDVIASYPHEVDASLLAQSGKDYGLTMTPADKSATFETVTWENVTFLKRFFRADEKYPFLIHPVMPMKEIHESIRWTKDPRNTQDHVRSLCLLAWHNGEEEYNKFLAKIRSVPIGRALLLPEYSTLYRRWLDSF
Polio RdRp inh intensity: recorded beside Polio RdRp inh, whose call it bears; % elongation; measured here: total intensity read-out; formula for this scale not given here;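 total fluorescence in place of polarization; lower means less elongation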
The depositor's hits bear a star. Some of the compounds tested; rates above refer to the full screens.

No.	Compound	Polio RdRp inh	Polio RdRp inh intensity
1	Cc1ccc(Cl)cc1N1CCN(C(=O)c2cn(C)c3ccc(S(=O)(=O)N4CCC(C)CC4)cc3c2=O)CC1	107	111
2	COc1cccc(CNC(=O)C(NS(=O)(=O)c2ccc3c(c2)CCN3C(C)=O)C(C)C)c1 (stereo not given)	104	103
3	N#C/C(=C\c1ccc(Cl)cc1)C(=O)NCC1CCCO1 (stereo not given)	103	106
4	CC(=O)c1cccc(NC(=O)c2ccc3nc(C(C)C)oc3c2)c1	100	99
5	CCc1ccc(-n2nc(C)c3c(C(=O)N4CCN(c5cccc(Cl)c5)CC4)cc(C)nc32)cc1	120	112
6	CCOc1ccc(CN2CCc3nc(N4CCN(c5ncccn5)CC4)ncc3C2)cc1OC	99	101
7	Cc1cccc(-c2noc(-c3cc(-c4ccc(F)cc4)n[nH]3)n2)c1	98	95
8	CCOC(=O)c1sc(NC(=O)c2cc3nc(-c4ccccc4)cc(C(F)(F)F)n3n2)c(C(=O)OCC)c1C	107	109
9	COC(=O)c1cc(C)nc2c1c(=O)nc(SCc1cccc(C)c1)n2C1CC1	107	113
10	Cc1ccccc1OCC(=O)Nc1nnc(S(=O)(=O)N(C)c2ccccc2)s1	111	117
11	CC(C)c1ccc(NC(=O)CCNS(=O)(=O)c2cccc3nsnc23)cc1	104	104
12	CCN1CCN(c2cc(C)c3cc(NC(=O)c4ccc(OC)c(OC)c4)ccc3n2)CC1	100	98
13	Nc1nonc1C(=O)NCCNCc1cccc(Cl)c1Cl	108	111
14	COc1ccccc1NC(=O)CCN1CCCCC1	104	110
15	CCOC(=O)C1CCN(C(=O)c2cc3ccc4cccnc4c3[nH]2)CC1	105	109
16	Cc1ccc(CNC(=O)COCc2cc(-c3cccs3)on2)cc1	106	111
17	COc1ccc(CCn2c3c(c(=O)[nH]c2=O)C(NC(=O)c2ccccc2)(C(F)(F)F)C(=O)N3)cc1OC (stereo not given)	105	105
18	COc1cc2c(cc1OC)C(COc1ccc3c(C)cc(=O)oc3c1)N(C(=O)c1ccc(C)cc1)CC2 (stereo not given)	106	109
19	CCc1ccc(NC(=O)Cn2c(=O)n(-c3ccccc3)c(=O)c3ccc(C(=O)NCc4ccc5c(c4)OCO5)cc32)cc1	100	100
20	CCCN(CCC)C(=O)c1cc2c(=O)n3cccc(C)c3nc2s1	100	104
21	Cc1nc2c(-c3ccccc3)c(C)nn2c(C)c1CCC(=O)N1CCN(c2ccccc2)CC1	108	110
22	O=C(NCC(c1cccnc1)N1CCc2ccccc21)c1ccc(Cl)cc1 (stereo not given)	113	115
23	COCCNC(=O)CCCN1C(=O)c2ccccc2Sc2ncccc21	107	106
24	Cc1ccc(NC(=O)c2cccc3c2C(=O)N(C2CCCCC2)C3)c(C)c1	109	104
25	Cc1cccc(NC(=O)CCNS(=O)(=O)c2cccc3nsnc23)c1C	105	105
26	Cc1cccc(CC(=O)NC2CC(=O)N(c3ccc4c(c3)OCCO4)C2)c1 (stereo not given)	107	105
27	O=C(Nc1cccc(Cl)c1)N1Cc2ccccc2Oc2ncccc21	109	107
28	CCOc1ccc(NC(=O)CN2CCN(CC(=O)Nc3ccccc3OCC)CC2)cc1	110	113
29	COc1ccc(OC)c(S(=O)(=O)NCCc2sc(-c3cccnc3)nc2C)c1	109	117
30	COC(=O)c1ccccc1NC(=O)c1cc(CN2CCCC2)on1	107	111
31	CCC(Cc1ccccc1)NC(=O)CCS(=O)(=O)c1cc2c(cc1Cl)NC(=O)CO2 (stereo not given)	107	111
32	O=C(CSc1nc2ccsc2c(=O)n1-c1ccc(Br)cc1)NCc1ccc(Cl)cc1	111	107
33	COC(=O)c1cc(NC(=O)Cn2ncc3c([nH]c4ccccc43)c2=O)cc(C(=O)OC)c1	104	110
34	O=S1(=O)N(Cc2ccccc2Cl)CCCN1Cc1ccccc1Cl	102	106
35	COc1ccc(C(=O)NCc2cn3ccc(C)cc3n2)cc1	107	107
36	CC(=O)c1ccc(NC(=O)Cn2nc(C(F)(F)F)c3c2CCC3)cc1	107	111
37	NCCc1nc2cccnc2n1-c1ccccc1	113	119
38	Cc1ccc2c(c1)c1c(c(=O)n(-c3cccc(Cl)c3)c(=O)n1CC(=O)NCC1CCCO1)n2C (stereo not given)	109	107
39	COc1ccccc1CNC(=O)CCc1c(C)c2cc3c(C)coc3cc2oc1=O	103	112
40	Cc1ccc2c(c1)-c1c(cnn1CC(=O)N1CCN(c3cccc(C(F)(F)F)c3)CC1)CO2	105	109
41	COc1ccc(OCC(=O)Nc2ccc(-c3nc4cc(Cl)ccc4o3)cc2)cc1	108	102
42	COc1ccc(S(=O)(=O)NCCc2sc(-c3cccnc3)nc2C)cc1OC	104	109
43	CC(=O)Nc1ccc(Nc2c(CCC(C)C)c(C)c(C#N)c3nc4ccccc4n23)cc1	101	100
44	Cc1ccc(CNC(=O)c2ccc(CS(=O)(=O)Cc3ccc(F)cc3)o2)cc1	109	112
45	CN1C(=O)c2ccccc2Sc2ccc(NC(=O)N3CCN(c4ccccc4)CC3)cc21	97	96
46	CC(C)(C)C1CCc2oc3ccc(NS(=O)(=O)c4cc(Cl)ccc4Cl)cc3c2C1 (stereo not given)	104	104
47	Cc1ccc(CNC(=O)Cn2c3ncccc3c(=O)n2-c2ccc(C)cc2)cc1	110	105
48	COc1ccc(-c2noc(CSc3nnc(-c4ccncc4)n3-c3ccccc3)n2)cc1	108	99
49	CCCCn1cc(S(=O)(=O)c2ccc(C)c(C)c2)c(=O)c2cc(F)c(N(CC)CC)cc21	103	110
50	Cc1ccc2nc(COc3cccc(NC(=O)COc4ccc(F)cc4)c3)cc(=O)n2c1	102	110

Following part
No.	Compound	Polio RdRp inh	Polio RdRp inh intensity
51	CNC(=O)c1ccc(Nc2nnc(-c3ccc(C)c(S(=O)(=O)NC(C)(C)C)c3)c3ccccc23)cc1	100	100
52	N#Cc1ccc(OC(=O)c2cc(-c3ccc4c(c3)OCCO4)on2)cc1	107	101
53	Cc1ccc(-c2nc3nc(C)cc(Nc4ccccc4O)n3n2)cc1	109	151
54	CCOc1ccc(NC(=O)CC2C(=O)N(c3cccc(C)c3)C(=O)N2Cc2cccs2)cc1 (stereo not given)	113	114
55	CCOC(=O)c1noc2ncnc(Nc3cc(Cl)c(OC)cc3OC)c12	99	105
56	CCCCNC(=O)CCn1c(=O)c2ccccc2n(Cc2ccccc2C#N)c1=O	107	107
57	Cc1ccc(NC(=O)C(=O)NCc2ccco2)cc1	101	101
58	Cc1[nH]c2ccc(C(=O)N3CCN(c4ccccc4F)CC3)cc2c1C	103	104
59	CCOc1ccc(NC(=O)c2ncoc2-c2ccco2)cc1	96	98
60	COc1ccc(NC(=O)c2ccco2)cc1NC(=O)COc1cccc(C)c1C	108	108
61	COc1ccc(C)cc1S(=O)(=O)N1CCN(c2cccc(Cl)c2)CC1	103	102
62	CCC1=Nc2cc(C(=O)NC3CCCC3)ccc2Sc2ccc(Br)cc21	109	110
63	COc1ccc(Cl)cc1NC(=O)CSC1=Nc2ccccc2C2=NC(CC(=O)NCc3ccc4c(c3)OCO4)C(=O)N12 (stereo not given)	112	114
64	CCS(=O)(=O)c1ncc(N(Cc2ccco2)Cc2sccc2C)c(C(=O)Nc2cc(C)ccc2C)n1	117	114
65	O=C(Nc1nnc(S(=O)(=O)N2CCOCC2)s1)c1cccc(F)c1	98	98
66	Cc1ccc(C)c(-c2[nH]c3c(c2-c2c(-n4cccc4)n(C)c(=O)n(C)c2=O)c(=O)n(C)c(=O)n3C)c1	108	109
67	COc1ccccc1Cn1cc(C(=O)c2ccc(F)cc2)c(=O)c2cc3c(cc21)OCO3	115	112
68	Cc1nnc(N2CCN(c3ccccc3)CC2)c2c1nnn2Cc1ccc(F)cc1	108	100
69	CCOc1ccc(NC(=O)N(Cc2c[nH]c3ccccc23)C2CCCCCC2)cc1	109	111
70	Cc1ccc(S(=O)(=O)Cc2nc(-c3ccc(C(=O)NCc4ccccc4C)cc3)oc2C)cc1	99	105
71	CCOC(=O)CSc1nnc2n(-c3ccccc3)c(=O)c3c4c(sc3n12)COC(C(C)C)C4 (stereo not given)	110	112
72	Cc1ccc(CNC(=O)c2nc(SCc3ccccc3C)ncc2Cl)cc1	105	100
73	CCc1cccc(NC(=O)Cn2c(=O)n(CCc3ccc(OC)c(OC)c3)c(=O)c3ccccc32)c1	106	105
74	COc1cccc(C(=O)Nc2ccccc2-c2nnc(-c3cc(OC)ccc3Br)o2)c1	107	111
75	Cc1ccc(-n2c(=O)[nH]c3cc(C(=O)NCc4ccccc4)ccc3c2=O)cc1	103	104

A draw from above in order of SMILES length, rising:
No.	Compound	Polio RdRp inh	Polio RdRp inh intensity
59	CCOc1ccc(NC(=O)c2ncoc2-c2ccco2)cc1	96	98
53	Cc1ccc(-c2nc3nc(C)cc(Nc4ccccc4O)n3n2)cc1	109	151
61	COc1ccc(C)cc1S(=O)(=O)N1CCN(c2cccc(Cl)c2)CC1	103	102
74	COc1cccc(C(=O)Nc2ccccc2-c2nnc(-c3cc(OC)ccc3Br)o2)c1	107	111
54	CCOc1ccc(NC(=O)CC2C(=O)N(c3cccc(C)c3)C(=O)N2Cc2cccs2)cc1 (stereo not given)	113	114
51	CNC(=O)c1ccc(Nc2nnc(-c3ccc(C)c(S(=O)(=O)NC(C)(C)C)c3)c3ccccc23)cc1	100	100

Next section.
No.	Compound	Polio RdRp inh	Polio RdRp inh intensity
76	CCCC(=O)N1c2nc(-c3ccco3)nn2C2(CCCCC2)[C@@H]2CCCC[C@@H]21	99	102
77	CCOc1ccccc1NS(=O)(=O)c1ccc2c(c1)CC(C)N2C(=O)C1CCC1 (stereo not given)	109	113
78	O=C(OCc1ccccc1)c1ccccc1C(=O)c1ccccc1	102	106
79	Cc1ccccc1OCc1nc2c3cnn(-c4ccccc4Br)c3ncn2n1	117	114
80	COc1ccc(NC(=O)CN2C(=O)CCn3nc(-c4cccn4C)cc32)cc1	104	113
81	CCOc1ccc2cc(-c3nnc(Nc4ccc(C)cc4)s3)c(=O)oc2c1	106	117
82	CC(C)CCNC(=O)c1ccc2nc(Cc3ccccc3)oc2c1	114	110
83	O=C(Nc1c(Cl)cccc1Cl)c1cc(-c2cccc(O)c2)on1	101	97
84	COc1ccc(-c2cc(C(F)(F)F)nc(-n3nc(C(F)(F)F)cc3C)n2)cc1	102	104
85	Cc1ccc(CNS(=O)(=O)c2cc(C(=O)Nc3cccc(C(F)(F)F)c3)ccc2F)cc1	110	110
86	CCCn1c2ccccc2c2cnn(CC(=O)NCc3ccc(OC)cc3)c(=O)c21	103	101
87	CCOc1ccc(-c2cc3nc(C4CCN(C(=O)OC(C)(C)C)CC4)c(C(=O)Nc4cccc(Cl)c4C)cn3n2)cc1	103	99
88	Cc1ccc(CNC(=O)CCc2c(C)c3cc4c(C)coc4cc3oc2=O)cc1	110	98
89	COc1ccc(CNC(=O)Cc2c(C)c3c(cc(C)c4c(C)coc43)oc2=O)cc1	113	112
90	Cc1ccccc1NC(=O)CSc1nc2c(c(=O)n(C)c(=O)n2C)n1Cc1ccccc1F	105	107
91	COCCn1c(=O)[nH]c2cc(C(=O)N3CCN(c4ccc(F)cc4)CC3)ccc2c1=O	105	108
92	CCOc1ccc(S(=O)(=O)c2cn(Cc3ccc(C)cc3)c3ccc(OC)cc3c2=O)cc1	90*	62*
93	COc1cc(NC(=O)c2cc(Cl)ccc2Cl)ccc1NC(=O)c1cc2ccccc2o1	105	109
94	CCc1nnc(SC(CC)C(=O)Nc2cccc(OC)c2)c2cc3oc(C)cc3n12 (stereo not given)	110	111
95	COc1cc(-c2nc(-c3ccc4c(c3)[nH]c(=O)n4C)no2)cc(OC)c1OC	114	119
96	CC(Oc1ccc(F)cc1)C(=O)Nc1nc(-c2ccc(F)cc2)ns1 (stereo not given)	107	114
97	COc1cccc(-c2noc(C3CC(=O)N(c4ccc(F)cc4)C3)n2)c1OC (stereo not given)	111	117
98	CCOc1ccc(S(=O)(=O)Nc2ccc(OC)c(Cl)c2)c2cccnc12	100	101
99	CCc1cccc(C)c1NC(=O)c1ccc2c(c1)CCN2S(=O)(=O)c1ccc(Cl)cc1	104	106
100	CCOC(=O)c1ccccc1NC(=O)c1cc2c(s1)-c1c(C)cccc1OC2	106	101
101	O=C(NCCc1ccccc1)C(=O)NCC(c1ccco1)S(=O)(=O)c1cccs1 (stereo not given)	106	112
102	CC1CCC(NC(=O)C2(C)Cc3ccccc3C(=O)N2Cc2ccc(Cl)cc2)CC1 (stereo not given)	111	113
103	Cc1ccc(C)c(NC(c2ccccc2)c2nnc(-c3ccccc3F)o2)c1 (stereo not given)	106	106
104	CCc1ccccc1NC(=O)c1ccc(F)c(S(=O)(=O)NC2CCCCCC2)c1	107	98
105	COc1ccc(CC(=O)Nc2ccc(-c3nc4ccccc4s3)c(C)c2)cc1	107	106
106	COc1cccc(CNC(=O)CN2C(=O)CCc3cc(S(=O)(=O)N4CCOCC4)ccc32)c1	104	105

Random excerpt: 6 compounds from above.
No.	Compound	Polio RdRp inh	Polio RdRp inh intensity
106	COc1cccc(CNC(=O)CN2C(=O)CCc3cc(S(=O)(=O)N4CCOCC4)ccc32)c1	104	105
101	O=C(NCCc1ccccc1)C(=O)NCC(c1ccco1)S(=O)(=O)c1cccs1 (stereo not given)	106	112
105	COc1ccc(CC(=O)Nc2ccc(-c3nc4ccccc4s3)c(C)c2)cc1	107	106
103	Cc1ccc(C)c(NC(c2ccccc2)c2nnc(-c3ccccc3F)o2)c1 (stereo not given)	106	106
104	CCc1ccccc1NC(=O)c1ccc(F)c(S(=O)(=O)NC2CCCCCC2)c1	107	98
102	CC1CCC(NC(=O)C2(C)Cc3ccccc3C(=O)N2Cc2ccc(Cl)cc2)CC1 (stereo not given)	111	113

Assay outcomes deposited in PubChem BioAssay by ICCB-Longwood Screening Facility, Harvard Medical School.
